High-throughput results: PubChem BioAssay, National Center for Advancing Translational Sciences (NCATS)
VDR inhibitor – inhibitors of human vitamin D receptor. VDR-SRC2-3 peptide fluorescence polarization, 2 h. 400,000 tested, 0.93% active. P11473. Potency, µM, for the others: max response, negative = inhibition, usual class: inhibitors; active = well fitted inhibition curve with a large enough effect; inconclusive = small, poorly fitted or top-dose-only effect, or another doubt; inactive = no such curve, though single readings can be large or run the other way; note: series mostly up to about 120 µM
Target sequence (P11473 whole entry, looked up): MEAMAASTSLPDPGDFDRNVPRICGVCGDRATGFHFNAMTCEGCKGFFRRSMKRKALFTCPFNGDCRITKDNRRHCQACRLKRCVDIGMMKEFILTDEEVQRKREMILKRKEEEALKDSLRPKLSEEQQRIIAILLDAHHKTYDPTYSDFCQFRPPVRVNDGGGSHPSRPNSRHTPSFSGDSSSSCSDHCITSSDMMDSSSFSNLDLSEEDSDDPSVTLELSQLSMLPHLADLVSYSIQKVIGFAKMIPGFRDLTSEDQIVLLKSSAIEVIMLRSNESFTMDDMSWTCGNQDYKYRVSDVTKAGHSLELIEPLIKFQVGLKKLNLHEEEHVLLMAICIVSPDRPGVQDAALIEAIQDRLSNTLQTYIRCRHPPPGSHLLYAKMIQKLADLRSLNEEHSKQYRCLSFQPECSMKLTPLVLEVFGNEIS
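Two reagent solutions held at 4 deg C in the dark were dispensed, compounds pinned at 23 nl, and the mixture incubated 2 h at room temperature. Read-out: fluorescence polarization of VDR–SRC2-3 peptide binding.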
An asterisk follows results filed as active; u = inconclusive; & = joins results of further samples; [ ] = remark or other dose. % is set by controls: 0 for no effect and ±100 for the full control effect; potency is the fitted concentration of half-maximal effect. These rows are one share of the data. The share of hits here may be higher or lower than overall.

VDR inhibitor	SMILES
-1%	CC(Oc1ccc(O)cc1)(P(=O)(O)O)P(=O)(O)O
1%	COc1cccc(-n2c(SCC(=O)Nc3ccc4c(c3)CCC4)nc3ccccc3c2=O)c1
13%	CC(C)(CO)NC(=S)NCc1ccco1
3%	COc1ccccc1NC(=O)c1nc(SCc2ccc(F)cc2)ncc1Cl
-22%	CCCCn1c(/N=C/c2cc(OC)ccc2O)nc2ccccc21
-1%	Cc1cccc2cc(C#N)c(SCC(=O)NCC3CCCO3)nc12 (stereo not given)
7%	COc1ccc(C(=O)NC2CCN(C(=S)Nc3ccccc3)CC2)cc1
4%	O=c1[nH]c(/C=C\c2cccs2)nc(O)c1[N+](=O)[O-]
-18%	CC(=O)c1ccc(N=Nc2c(C)[nH]n(-c3ccccc3)c2=O)cc1
-2%	CC(=O)Nc1ccc2c(c1)nc(CCNC(=O)c1ccccc1)n2C
-12%	COc1ccc(C(=O)CSc2nnc(-c3cc(C)cc(C)c3)o2)cc1
14%	Cc1noc(C)c1COC(=O)CNC(=O)c1ccc(Cl)cc1
2%	COc1ccc(-c2noc(COc3cc(C)ccc3C)n2)cc1OC
0%	O=C(CSc1nnc(-c2ccccc2O)n1-c1ccccc1)Nc1cccc(C(=O)O)c1
-13%&-8%	CCCCC/C=C\CC1OC1C/C=C\C/C=C\CCCC(=O)O (stereo not given)
-9%	CCCC(C(=O)Nc1ccc(S(=O)(=O)N2CCCC2)cc1)c1ccccc1 (stereo not given)
0%	CCCC(=O)Nc1c(-c2ccc(OC)cc2)c(=O)c2ccccc2n1C
-17%	COc1ccc(-c2cc(C)no2)cc1S(=O)(=O)NCC1CCN(Cc2cc(C)ccc2C)CC1
-8%	c1ccc(Oc2ccc(-c3ccnc4ncnn34)cc2)cc1
7%	COc1ccc(CC(=O)Nc2ccc3nc(C)sc3c2)cc1OC
-5%	N#C/C(=C\C1=C(N2CCOCC2)C(=C\c2ccc(Cl)cc2)/CC1)C(=O)Nc1ccccc1F
-3%	CC(C)C[C@H](NC(=O)c1[nH]cnc1C(=O)N[C@@H](C)C(=O)OCc1ccccc1)C(=O)OCc1ccccc1
-5%	Cc1nc(-c2nc(-c3c(C(=O)NNC(=O)c4ccc(Cl)cc4)noc3C)cs2)cs1
-11%	O=C(NCC(c1ccco1)N1CCCC1)c1cccc(NS(=O)(=O)c2ccccc2)c1 (stereo not given)
12%	COc1ccccc1OCCNC(=O)c1cccc(S(=O)(=O)N2CCN(C)CC2)c1
-15%	O=C(c1cn2ccccc2n1)N1CCc2c([nH]c3ccccc23)C1c1ccccn1 (stereo not given)
-13%	CCn1nc(C)c(NC(=O)CCSc2nc(-c3ccco3)cc(C(F)(F)F)n2)c1C
1%	CC1(C)CCCC2(C)C3C(O)CC2(C)C(O)C31 (stereo not given)
19%	O=C(COc1ccccc1)N(Cc1cccnc1)c1nc2ccc(Cl)cc2s1
8%	COc1ccc(OC)c(NC(=O)N2CCc3ccccc3C2)c1

5 compounds picked at random from the list so far, as already listed:
VDR inhibitor	SMILES
19%	O=C(COc1ccccc1)N(Cc1cccnc1)c1nc2ccc(Cl)cc2s1
8%	COc1ccc(OC)c(NC(=O)N2CCc3ccccc3C2)c1
-15%	O=C(c1cn2ccccc2n1)N1CCc2c([nH]c3ccccc23)C1c1ccccn1 (stereo not given)
7%	COc1ccc(CC(=O)Nc2ccc3nc(C)sc3c2)cc1OC
-5%	N#C/C(=C\C1=C(N2CCOCC2)C(=C\c2ccc(Cl)cc2)/CC1)C(=O)Nc1ccccc1F

The list goes on:
VDR inhibitor	SMILES
-4%	CC(=O)N(C)c1ccc(OCC(O)Cn2c3ccc(Cl)cc3c3cc(Cl)ccc32)cc1 (stereo not given)
-4%	COc1ccc(OC)c(NC(=O)c2nnn(Cc3ccccc3C)c2N)c1
15%	NC(=O)NC(Cc1ccccc1)c1ccccc1 (stereo not given)
u	Cc1cccc(CNc2cc(-c3ccccc3C)ncn2)c1
3%	COc1cc2c(cc1OC)n(CC(=O)c1cc(C)ccc1C)c(=O)n1nc(CCn3nc(C)cc3C)nc21
-18%	CCCCN(C(=O)CSCC(=O)Nc1ccc(OC)cc1)c1c(N)n(Cc2ccccc2)c(=O)[nH]c1=O
6%	COC(=O)CCc1cccc(CCC(=O)OC)c1
12%	Cc1nc(NC(=O)c2cc3ccccc3o2)ccc1Br
-7%	Cc1ccccc1NS(=O)(=O)c1ccc(NS(=O)(=O)c2cccs2)cc1
-13%	Cc1cc(NC(=O)C(C)SCC(=O)Nc2ccccc2N2CCCC2)no1 (stereo not given)
7%	Cc1[nH]n(-c2ccccc2)c(=O)c1N=Nc1cccc(Cl)c1
-5%	CCCc1c(C)c2ccc(OCC(C)=O)cc2oc1=O
-15%	CCOC(=O)NCc1ccc(CNC(=O)OCC)cc1
-7%	CSc1nnc(-c2cccc(NC(=S)NN)c2)o1
-8%	CN1CC(c2ccccc2)C(c2ccc(Cl)cc2)=N1 (stereo not given)

Structures shown so far containing a thiophene ring, fused or not:
VDR inhibitor	SMILES
4%	O=c1[nH]c(/C=C\c2cccs2)nc(O)c1[N+](=O)[O-]
-7%	Cc1ccccc1NS(=O)(=O)c1ccc(NS(=O)(=O)c2cccs2)cc1

Additional results
VDR inhibitor	SMILES
-12%	Cc1nc2cc(C(=O)O)ccc2n1-c1ccc(C(C)C)cc1
11%	COc1ccccc1C(=O)Nc1onc(C)c1C#N
-2%	COc1cccc(/C=N/n2c(C)nc3ccccc32)c1OC
0%	CC(C)COC(=O)N1CC(O)CC1C(=O)Nc1ccc2c(c1)OCO2 (stereo not given)
-1%	CCN1C(=O)N(C(C)=O)C2C1N(C(C)=O)C(=O)N2C(C)=O (stereo not given)
19%	Cc1ccc(-c2cccc(NC(=O)C3C(C(=O)O)[C@@H]4C=C[C@H]3C4)c2)o1 (stereo not given in full)
4%	Cc1ccc(CC(=O)NCC(O)c2ccccc2)cc1 (stereo not given)
10%	Cc1cc2c(=O)c(C(=O)c3ccncc3)cn(CC(=O)Nc3cccc(C)c3C)c2cc1C
8%	Cc1ccc(-c2oc3ccccc3c(=O)c2OCC(=O)O)cc1
-10%	CCCCCNC(=O)C(C)Sc1ccc(Cl)cc1 (stereo not given)
14%	CCCCN(C(=O)c1cc(=O)[nH]c2ccccc12)c1c(N)n(CCC)c(=O)[nH]c1=O
7%	CCN(CC)C(=O)/C(NC(=O)c1ccccc1)=C(/Sc1ncccn1)c1ccccc1
-7%	Cn1c(NCCCO)nc2c1c(=O)n(Cc1cccc(F)c1)c(=O)n2C
7%	Cn1cnnc1SCC(=O)Nc1ccc(N2CCCCC2)cc1
-12%	CCCCCCNC(=O)CCCCCNS(=O)(=O)c1ccc(OC)cc1
0%	CC(=O)c1c(C)[nH]c(C(=O)Nc2ccc3c(c2)OCCO3)c1C
7%	CCOc1ccc(S(=O)(=O)Nc2ccc3oc(C)c(C(=O)OCCOC)c3c2)cc1
-4%	COc1ccc(C(=O)Nc2nnc(SCC(=O)NCc3ccco3)s2)c(OC)c1
-18%	Cc1cc(C)n(C(=O)c2ccc(Cl)c(F)c2F)n1
-17%	Cc1cc(NC(=O)CCC(=O)N(c2ccc(C)c(F)c2)C(C(=O)NC2CCCC2)c2ccco2)no1 (stereo not given)
9%	CC(NC(N)=O)C12CC3CC(CC(C3)C1)C2 (stereo not given)
-8%	O=C(CCN1C(=O)C2CCCCC2C1=O)Nc1nc(-c2ccc(F)c(F)c2)cs1 (stereo not given)
5%	Cc1ccc(CNC(=O)CCCCCNC(=O)N2CCn3c2nc2ccccc23)cc1
1%	Nc1nc2ccccc2n1CCOc1ccccc1Cl
22µM*	N#C/C(=C/c1ccc(N2CCCCCC2)o1)c1ccc(Cl)cc1
4%	O=[N+]([O-])c1cccc(Cn2cnc3c(=S)nc[nH]c32)c1
12%	COc1cccc(-c2csc(-c3c(N)c(C(=O)c4ccc5c(c4)OCO5)n4ccccc34)n2)c1
8%	O=C(Cn1cc(S(=O)(=O)Cc2ccccc2Cl)c2ccccc21)Nc1ccc(F)cc1F
-18%	CCN(C(=S)Nc1cc(S(=O)(=O)N2CCOCC2)ccc1Cl)c1cccc2ccccc12
-9%	CNC(=O)C1CC(=O)N(Cc2ccc(OC)c(OC)c2)C(=Nc2ccc(OC)cc2)S1 (stereo not given)
-6%	CC(C)C(c1nnnn1Cc1ccc2c(c1)OCO2)N1CCN(c2ccccc2)CC1 (stereo not given)
-1%	Cc1nnc(-c2cccc(C(F)(F)F)c2)nc1N1CCOCC1
10%	Cc1cccc(NC(=O)C2C(c3ccccc3)C2(Cl)Cl)c1 (stereo not given)
-12%	CC(=O)Oc1c(C(=O)c2nnc(C)o2)c(=O)n(Cc2ccccc2)c2ccccc12
2%	CCOC(=O)c1sc2ccccc2c1S(=O)(=O)Nc1cc(OC)ccc1OC
-12%	O=C(COC(=O)/C=C/c1cc(Br)ccc1F)NC1CC1
5%	COc1cccc(CSc2nc(N)cc(N)n2)c1
-2%	CCC(=O)OCC(=O)[C@@]1(OC(=O)CC)[C@H](C)C[C@@H]2[C@H]3CCC4=CC(=O)C=C[C@]4(C)[C@]3(Cl)[C@@H](O)C[C@@]21C
-13%	CCOc1cc(CN2CCSCC2)ccc1O
-18%	CN(C)/C=C(\C#N)C(=O)N/N=C/c1ccc(Cl)cc1
9%	CCCS(=O)(=O)N1CCCC(C(=O)NCC(OC)OC)C1 (stereo not given)
5%	Cc1ccc(-c2nc(CSCC(=O)NCCCN3CCOCC3)c(C)o2)cc1
-3%	Cc1cc(Oc2c(C(F)(F)F)oc3c(CN4CCC(C)CC4)c(O)ccc3c2=O)cc(C)c1Cl
71µM*	C=CCOc1ccccc1/C=c1\sc2nc(=O)c(C)nn2c1=O
-6%	COC(=O)C1CCN(C(=O)Cc2ccc(OC)c(OC)c2)CC1

3 entries from above, bar-delimited:
molecule | VDR inhibitor
CC(=O)Oc1c(C(=O)c2nnc(C)o2)c(=O)n(Cc2ccccc2)c2ccccc12 | -12%
CCOC(=O)c1sc2ccccc2c1S(=O)(=O)Nc1cc(OC)ccc1OC | 2%
O=C(COC(=O)/C=C/c1cc(Br)ccc1F)NC1CC1 | -12%

Following part.
VDR inhibitor	SMILES
-16%	Cc1nc2ccccc2c2oc(C(=O)NCC3COc4ccccc4O3)cc12 (stereo not given)
-5%	C[C@H](CO)N1C[C@H](C)[C@@H](CN(C)S(C)(=O)=O)Oc2ccc(NC(=O)CCC(F)(F)F)cc2C1=O
11%	COC(=O)c1cc(C)nc2c1c(=O)nc(SCc1cc(C)ccc1C)n2C1CC1
2%	OC(c1ccc(F)cc1)C(CN1CCOCC1)c1ccccc1 (stereo not given)
4%&18%	O=C(CCN1CCN2CCCC2C1)N1c2ccccc2Sc2ccc(Cl)cc21 (stereo not given)
-7%	Cc1ccc(C)c(C(=O)COC(=O)CN2C(=O)C3C4CCC(C4)C3C2=O)c1 (stereo not given)
-2%	O=C(Nc1ccc(F)cc1)c1ccc(COc2ccccc2)cc1
7%	O=C1CC(C(=O)N2CCOCC2)C2(CCCCC2)O1 (stereo not given)
-16%	COc1ccc(Cn2c(=O)c3[nH]cnc3n(-c3ccc(C)cc3)c2=O)cc1
4%	Cn1c(CSCc2ccc(Cl)c(Cl)c2)nnc1SCC(=O)Nc1nccs1
7%	COC(=O)C1=C(C)NC2=C(C(=O)CCC2)C1c1cn(Cc2ccc(Cl)cc2Cl)nc1-c1ccccc1 (stereo not given)
4%	CCn1c(CSc2nc3ccccc3[nH]2)n[nH]c1=S
-7%	CCN(CC)C(=O)c1ccc(COc2ccccc2Cl)cc1
-12%	O=C(NC(=S)N1CCCC1)c1ccccc1
3%	Clc1ccccc1-c1nnc(-c2ccccc2Cl)o1
20%	Nc1nonc1NN=C1CCCCC1
-13%	CCn1c(OC)nc2c1c(=O)n(C)c(=O)n2C
-6%	CCOC(=O)C1=CN(Cc2cccc(F)c2)S(=O)(=O)N(CC)C1c1ccc(Br)cc1F (stereo not given)
43%[activator]	c1ccc(-c2nnc3sc(CN4CCC5(CC4)OCCO5)cn23)cc1
-6%	CCCCCc1nnc(NC(=O)CS(=O)(=O)Cc2ccccc2)s1
-14%	O=C(NCCCN1CCOCC1)c1ccc(-c2ccc(Cl)cc2)o1
u	COc1ccc(-c2cc(OC(=O)c3ccc(Cl)cc3)c3c(C)oc(C)c3c(=O)c2)cc1
-4%	Cc1ccc(Cn2nc(-c3ccccc3)nc2-c2ccccc2)cc1
5%	CCN1CCN(C(=O)c2c(C)nn(-c3ccc(F)cc3)c2-n2cccc2)CC1
23%	CCOc1ccccc1NC(=O)Nc1ccccn1
8%	CCCNC(=O)c1nc(C)n(-c2ccc([N+](=O)[O-])cc2)n1
0%	COc1ccc(S(=O)(=O)N2CCCCC2)cc1Br
-13%	O=C(CN1CCN(CC(=O)Nc2cccc(F)c2)CC1)Nc1ccc(-c2ccccc2)cc1
12%	Cc1ccc(OCc2cc(C(=O)N(C)CCc3ccccn3)no2)cn1
-18%	Nc1ccc(CNC(=O)OCC2c3ccccc3-c3ccccc32)cc1
-14%	CCC(C)NC(=O)C1CCN(S(=O)(=O)c2ccc3c(c2)CC(C)N3C(C)=O)CC1 (stereo not given)
-13%	CCOC(=O)c1c(NC(=O)CCN2CCOCC2)sc(C)c1-c1ccccc1
7%	CCOc1ccc(NC(=O)N2CCC(N3CCCCC3)CC2)cc1
-5%	O=C(NS(=O)(=O)c1ccccc1)c1cccc(Br)c1
1%	COc1ccc2oc(C(=O)OCC(=O)Nc3ccc(OC)c(S(N)(=O)=O)c3)c(C)c2c1
u	CSc1nc(=S)c2[nH]c(=S)[nH]c2[nH]1
-6%	Cc1cnc(NC(=O)c2ccc3c(c2)C(=O)N(Cc2cccnc2)C3=O)s1
